Screening results deposited in PubChem BioAssay by Broad Institute.
Vaccinia inh – blocks a specific stage of Vaccinia orthopoxvirus infection. Vaccinia-infected cells, mCherry/Venus stage reporter fluorescence; hits give low values; some inactives read as strong as hits. activity change (mCherry), % (no concentration beside the values). actives 0.01% (n = 89,000). AID 1053133;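 active means mCherry past -33% and 40 or more points under the early reporter, replicates agreeing; inconclusive means past -33% without that gap or agreement; tested in A549 cells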;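 further: scaled between vehicle wells and reference inhibitor wells; 23 nL library stock went into each well; one replicate is shown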
Vaccinia inh Venus – also measured in Vaccinia inh; calls as there; activity change (Venus), %; measured here: Venus reporter, other viral stage;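 negative = less Venus signal; first of two replicates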
The depositor's hits bear a star; u = inconclusive; x = no result given; & = joins results of further samples. Only part of the results is shown. The share of hits here may be higher or lower than overall.

Structure	Vaccinia inh	Vaccinia inh Venus
C[C@@H]1CN([C@@H](C)CO)C(=O)c2cc(NC(=O)c3ccncc3)ccc2O[C@@H]1CN(C)C(=O)NC1CCCCC1	14	10
CO[C@H]1CN(C)C(=O)c2cc(NS(C)(=O)=O)ccc2OC[C@@H](C)N(CCC(F)(F)F)C[C@H]1C	2	8
CC(C)NC(=O)Nc1ccc2c(c1)C(=O)N([C@@H](C)CO)C[C@H](C)[C@@H](CN(C)S(=O)(=O)c1cccs1)OCCCC[C@H](C)O2	-2	-1
CC(C)NC(=O)Nc1cccc2c1O[C@H](CN(C)Cc1ccc(Cl)c(Cl)c1)[C@H](C)CN([C@@H](C)CO)C2=O	-19	-15
C[C@@H]1CN([C@@H](C)CO)C(=O)c2cccc(NC(=O)c3nc4ccccc4s3)c2O[C@H]1CN(C)C(=O)Nc1ccc(C(F)(F)F)cc1	-13	-4
C[C@@H]1CN([C@H](C)CO)C(=O)c2cc(-c3ccc(F)cc3)cnc2O[C@H]1CN(C)CC1CCCCC1	u	x
N#C[C@H]1[C@@H](c2ccc(-c3ccccc3)cc2)[C@@H](CO)N1C(=O)Cc1ccncc1	-24	-15
C[C@@H]1CCCCO[C@@H](CN(C)Cc2ccc(C(=O)O)cc2)[C@@H](C)CN([C@@H](C)CO)C(=O)c2cc(NS(C)(=O)=O)ccc2O1	15	2
COCC(=O)NC[C@H]1[C@@H](c2ccccc2)[C@@H](CO)N1C(=O)c1ccccc1	20	15
COCC#Cc1ccc2c(c1)O[C@@H](CN(C)Cc1ccccn1)[C@H](C)CN([C@@H](C)CO)S2(=O)=O	-2	-2
CCCNC(=O)Nc1ccc2c(c1)OC[C@H](C)N(Cc1ccccn1)C[C@@H](C)[C@@H](OC)CN(C)C2=O	3	-1
C/C=C/c1ccccc1[C@@H]1[C@@H](C#N)N(C(=O)CN2CCOCC2)[C@@H]1CO	-6	-4
COc1ccc(CN(C)C[C@@H]2Oc3ccc(NC(=O)Nc4ccc(C(F)(F)F)cc4)cc3C(=O)N([C@H](C)CO)C[C@@H]2C)cc1	u	x
CS(=O)(=O)Nc1ccc2c(c1)[C@H]1C[C@H](CC(=O)O)O[C@@H](CO)[C@H]1O2	22	10
COc1ccccc1CNC(=O)C[C@H]1C[C@@H]2c3cc(N(C)C)ccc3O[C@@H]2[C@H](CO)O1	1	15
C[C@H]1CN([C@@H](C)CO)C(=O)c2cc(C#CCN(C)C)cnc2O[C@H]1CN(C)C(=O)Cc1ccncc1	14	9
CNC[C@@H]1Oc2ccc(NC(=O)Nc3cccc4ccccc34)cc2C(=O)N([C@@H](C)CO)C[C@@H]1C	7	9
O=C(N[C@@H]1C=C[C@H](CC(=O)N2CCc3ccccc3C2)O[C@H]1CO)C1CCOCC1	2	2
C[C@@H]1CN([C@H](C)CO)C(=O)c2cc(NC(=O)Nc3cccc4ccccc34)ccc2O[C@H]1CN(C)C(=O)Nc1ccccc1	0	5
C[C@@H]1CCCCO[C@H](CN(C)CC2CCCCC2)[C@@H](C)CN([C@H](C)CO)C(=O)c2cc(NC(=O)Nc3ccccc3)ccc2O1	u	x
CC(C)NC[C@H]1[C@@H](c2ccc(-c3ccccc3)cc2)[C@@H](CO)N1CC1CC1	-28	-16
Cc1noc(C)c1NC(=O)Nc1ccc2c(c1)CC(=O)N([C@H](C)CO)C[C@H](C)[C@H](CN(C)Cc1ccncc1)O2	30	13
CC(C)C#Cc1cnc2c(c1)C(=O)N([C@@H](C)CO)C[C@@H](C)[C@H](CN(C)C(=O)Nc1cc(F)ccc1F)O2	0	1
C[C@@H]1CN([C@H](C)CO)S(=O)(=O)c2ccc(C#Cc3ccc(F)cc3)cc2O[C@H]1CN(C)C(=O)NC1CCCC1	u	x
Cc1ccc(-c2ccc(C3[C@H]4CNC[C@@H]3N4C(=O)Nc3ccccc3Cl)cc2)cc1 (stereo partly drawn)	-15&-28	-19&-23
O=C(C[C@@H]1C=C[C@H](NC(=O)Nc2cc(F)ccc2F)[C@@H](CO)O1)NCCCN1CCOCC1	-7	-4
O=C(C[C@@H]1CC[C@H]2[C@@H](COC[C@H](O)CN2C(=O)Nc2cccc(Cl)c2)O1)N1CCCCC1	-13	-9
O=C(Cc1ccccc1)N1CC(=O)N2[C@@H](CO)[C@@H](c3ccc(C#Cc4ccccc4)cc3)[C@@H]2C1	5	4
C[C@@H]1CN([C@@H](C)CO)C(=O)c2cccc(NS(=O)(=O)c3ccc(Cl)cc3)c2O[C@H]1CN(C)Cc1ccc(Cl)c(Cl)c1	-24	-18
CCCNC(=O)Nc1ccc2c(c1)C(=O)N(C)C[C@@H](OC)[C@@H](C)CN(C(=O)C1CC1)[C@H](C)CO2	7	-1
CO[C@H]1CN(C)C(=O)c2ccc(NC(=O)c3ccccc3)cc2OC[C@H](C)N(C(=O)CN(C)C)C[C@@H]1C	2	15
O=C(Nc1ccc2c(c1)OCO2)N[C@@H]1CC[C@H](CCNC(=O)C2CC2)O[C@H]1CO	6	1
O=C([C@H]1[C@H](CO)[C@H]2Cn3c(ccc(-c4ccncc4)c3=O)[C@@H]1N2Cc1cccnc1)N1CCOCC1	10	8
C[C@@H]1CN([C@@H](C)CO)C(=O)c2cc(NC(=O)Nc3ccc(F)cc3)ccc2O[C@@H]1CN(C)C(=O)Nc1cccc2ccccc12	8	3
CO[C@H]1CN(C)C(=O)c2cc(NS(=O)(=O)c3ccccc3Cl)ccc2OC[C@@H](C)NC[C@H]1C	0	11
N#C[C@H]1[C@H](c2ccc(C#Cc3cccc(F)c3)cc2)[C@@H](CO)N1C(=O)C1CC1	-19	-8
CN1C(=O)c2cc(NS(C)(=O)=O)ccc2OC[C@H]2O[C@@H](CC(=O)NCc3ccccc3)CC[C@@H]21	11	3
N#C[C@@H]1[C@H](c2ccccc2-c2cccc(F)c2)[C@H](CO)N1C(=O)CN1CCOCC1	16	4
CC(C)NC(=O)N(C)C[C@H]1Oc2ccc(NC(=O)CCC(F)(F)F)cc2C(=O)N([C@H](C)CO)C[C@@H]1C	4&6	7&10
COc1ccc(S(=O)(=O)N(C)C[C@@H]2OCc3ccccc3-c3c(n(C)c4ccccc34)C(=O)N([C@@H](C)CO)C[C@H]2C)cc1	u	x

Given field by field: 4 of the compounds above.
structure: Cc1ccc(-c2ccc(C3[C@H]4CNC[C@@H]3N4C(=O)Nc3ccccc3Cl)cc2)cc1 (stereo partly drawn)
  Vaccinia inh: -15&-28	Vaccinia inh Venus: -19&-23
structure: O=C(C[C@@H]1C=C[C@H](NC(=O)Nc2cc(F)ccc2F)[C@@H](CO)O1)NCCCN1CCOCC1
  Vaccinia inh: -7	Vaccinia inh Venus: -4
structure: O=C(C[C@@H]1CC[C@H]2[C@@H](COC[C@H](O)CN2C(=O)Nc2cccc(Cl)c2)O1)N1CCCCC1
  Vaccinia inh: -13	Vaccinia inh Venus: -9
structure: O=C(Cc1ccccc1)N1CC(=O)N2[C@@H](CO)[C@@H](c3ccc(C#Cc4ccccc4)cc3)[C@@H]2C1
  Vaccinia inh: 5	Vaccinia inh Venus: 4

(cont.)
Structure	Vaccinia inh	Vaccinia inh Venus
COc1ccc(CNC(=O)C[C@@H]2CC[C@H](NC(=O)c3ccc4c(c3)OCO4)[C@H](CO)O2)cc1	-6	-8
CCCN1C[C@@H](C)[C@H](OC)CN(C)C(=O)c2ccc(NC(=O)c3ccccc3)cc2OC[C@@H]1C	0	3
C[C@H]1CN([C@@H](C)CO)C(=O)Cc2cc(NC(=O)Nc3ccc(F)cc3)ccc2O[C@@H]1CN(C)C	-1	-4
C[C@@H]1CN([C@@H](C)CO)C(=O)c2cc(C#Cc3ccccc3F)cnc2O[C@H]1CN(C)C(=O)Cc1cccnc1	0	-8
COc1ccc(S(=O)(=O)Nc2ccc3c(c2)CC(=O)N([C@@H](C)CO)C[C@H](C)[C@H](CN(C)S(=O)(=O)c2cccs2)O3)cc1	-16	-4
O=C([C@H]1[C@H](CO)[C@H]2Cn3c(ccc(-c4ccncc4)c3=O)[C@H]2N1CCC(F)(F)F)N1CCOCC1	4	6
CN(C)C(=O)c1ccc(-c2ccccc2[C@@H]2[C@H](C#N)N(C(=O)C3CC3)[C@H]2CO)cc1	2	-1
C[C@@H]1CN([C@@H](C)CO)C(=O)c2cccc(N(C)C)c2O[C@@H]1CN(C)S(=O)(=O)c1cn(C)cn1	3	14
Cc1ccc(S(=O)(=O)N(C)C[C@H]2OCc3cn(nn3)CCCC(=O)N([C@@H](C)CO)C[C@H]2C)cc1	2	-1
O=C(C[C@@H]1C[C@@H]2c3cc(NC(=O)Nc4ccccc4)ccc3O[C@@H]2[C@H](CO)O1)NCC1CC1	-6	-1
C[C@@H]1CN([C@H](C)CO)C(=O)c2cc(C#Cc3ccc(F)cc3)cnc2O[C@H]1CN(C)C	-20	-12
COc1cccc(NC(=O)N(C)C[C@@H]2Oc3ncc(C4=CCCCC4)cc3C(=O)N([C@@H](C)CO)C[C@H]2C)c1	-19	-12
CCCN1C[C@@H](C)[C@H](OC)CN(C)C(=O)c2cc(NC(=O)C3CC3)ccc2OC[C@@H]1C	7	9
C[C@@H]1CN([C@H](C)CO)S(=O)(=O)c2ccc(C#C[C@@H](C)O)cc2O[C@@H]1CN(C)Cc1cccnc1	11	2
O=C(C[C@@H]1C=C[C@H](NC(=O)C2CCOCC2)[C@H](CO)O1)NCc1ccccc1Cl	0	-5
CC(C)NC(=O)N(C)C[C@H]1Oc2c(NC(=O)Nc3ccc(F)cc3)cccc2C(=O)N([C@H](C)CO)C[C@@H]1C	8	5
C[C@H](CO)N1C[C@H](C)[C@H](CN(C)C(=O)[C@@H](Cc2ccccc2)N(C)C)OCc2ccccc2-c2c(n(C)c3ccccc23)C1=O	u	x
C[C@@H]1CN([C@@H](C)CO)C(=O)Cc2cc(NC(=O)C3CC3)ccc2O[C@H]1CN(C)Cc1ccc(C(=O)Nc2ccccc2N)cc1	-2	-3
O=C(C[C@@H]1CC[C@H](NC(=O)Nc2ccc3c(c2)OCO3)[C@H](CO)O1)NCc1ccc2c(c1)OCO2	10	11
CN1CCCCN2[C@H](CO)[C@@H](c3ccc(-c4ccc(F)cc4)cc3)[C@@H]2C1	u	x

Quoted from the listing for reference:
Structure	Vaccinia inh	Vaccinia inh Venus
O=C(C[C@@H]1CC[C@H](NC(=O)Nc2ccc3c(c2)OCO3)[C@H](CO)O1)NCc1ccc2c(c1)OCO2	10	11
CN1CCCCN2[C@H](CO)[C@@H](c3ccc(-c4ccc(F)cc4)cc3)[C@@H]2C1	u	x

Later entries:
Screens in order – Vaccinia inh	Vaccinia inh Venus
C[C@@H]1CN([C@@H](C)CO)C(=O)Cc2cc(NC(=O)CCN3CCOCC3)ccc2O[C@@H]1CN(C)Cc1ccncc1
    -5	-13
C[C@@H]1CCCCO[C@@H](CN(C)C(=O)c2ccncc2)[C@@H](C)CN([C@H](C)CO)C(=O)c2cc(NC(=O)CCCCCC(=O)Nc3ccccc3N)ccc2O1
    12	4
CC(C)NC(=O)Nc1ccc2c(c1)CC(=O)N([C@H](C)CO)C[C@@H](C)[C@H](CN(C)C)O2
    6	1
COC(=O)[C@@H]1[C@@H](CO)[C@@H]2Cn3c(ccc(-c4ccccc4F)c3=O)[C@@H]2N1Cc1ccccc1
    8	5
C[C@H](CO)N1C[C@H](C)[C@@H](CN(C)C(=O)c2ccccc2F)Oc2ncc(-c3cncnc3)cc2C1=O
    0	-7
CN1C(=O)c2cc(NC(=O)Nc3cccc(Cl)c3)ccc2OC[C@@H]2O[C@@H](CC(=O)O)CC[C@@H]21
    -2	0
COc1ccc(NC(=O)Nc2ccc3c(c2)C(=O)N([C@@H](C)CO)C[C@H](C)[C@@H](CN(C)Cc2ccc(Cl)c(Cl)c2)O3)cc1
    u	x
O=C(c1ccc2c(c1)OCO2)N1CC2(C1)[C@@H](c1ccccc1)[C@@H](CO)N2C(=O)C1CC1
    8	0
CC(C)NC(=O)Nc1ccc2c(c1)C(=O)N([C@@H](C)CO)C[C@@H](C)[C@@H](CN(C)C(=O)CCCN(C)C)OCCCC[C@H](C)O2
    11	-4
O=C(C[C@@H]1CC[C@H]2[C@@H](COC[C@H](O)CN2C(=O)Cc2ccccc2)O1)NC1Cc2ccccc2C1
    -3	0
N#C[C@@H]1[C@H](c2ccc(C#CC3CCCC3)cc2)[C@@H](CO)N1S(=O)(=O)c1ccccc1
    u	x
C[C@H]1CN([C@@H](C)CO)C(=O)c2cc(-c3cccnc3)cnc2O[C@@H]1CN(C)C(=O)c1ccccc1F
    24	6
C[C@H]1CN([C@@H](C)CO)C(=O)c2cccc(NC(=O)c3ccc(-c4nccs4)cc3)c2O[C@@H]1CN(C)S(=O)(=O)c1ccc(Cl)cc1
    -4	-3
CCCNC(=O)N1CC2(C1)[C@@H](c1ccccc1)[C@H](CO)N2C(=O)C1CCCC1
    2	2
O=C(Nc1cc(F)ccc1F)N[C@H]1CC[C@H](CCn2cc(C3CC3)nn2)O[C@H]1CO
    -1	1
C[C@@H]1CCCCO[C@H](CN(C)CC2CC2)[C@@H](C)CN([C@H](C)CO)C(=O)c2cc(NS(=O)(=O)c3ccccc3)ccc2O1
    16	6
CN1c2ccc(-c3cccc(F)c3)cc2[C@H]2[C@H](CCN2C(=O)c2ccccc2F)[C@@H]1CO
    6	9
CC(=O)N(C)C[C@@H]1Oc2cc(Br)ccc2S(=O)(=O)N([C@@H](C)CO)C[C@H]1C
    18	14
O=C(C1CCCC1)N1CC(=O)N2[C@@H](CO)[C@@H](c3ccc(Br)cc3)[C@@H]2C1
    -5	-2
CN(C)C(=O)C[C@@H]1CC[C@@H]2[C@H](COC[C@H](O)CN2CC2CCCCC2)O1
    14	11
